# Bioassay records deposited in PubChem by Broad Institute.
# Tg IFNy HTS: T. gondii growth inhibition under IFN-gamma | Toxoplasma gondii growth in IFN-gamma-treated host cells; stronger effect = lower value; reference of the scale not given here | activity change, negative = inhibition, %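 (about 20 µM by stock and volumes)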 | 69,000 compounds, 3.8% hits | AID 1259416;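 active means below -70%; inconclusive means fit judged invalid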;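 further: host cells are HeLa cells infected with Toxoplasma gondii; parasite growth read as luciferase light; one replicate is shown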
# The depositor's hits bear a star; i = inactive; u = inconclusive; & = joins results of further samples. This is a subset; rates above refer to the full screens.
Molecule | Tg IFNy HTS
Cc1nc2ncccn2c1C(=O)N1[C@@H]2CC[C@H]1CNC(=O)C2 | 12
COc1ccc(-n2c(CCN)n[nH]c2=O)cc1OC | 4
Cc1ccccc1CC(=O)N1CCC2(CC1)Nc1cc(F)ccc1-n1cccc12 | 37
C[C@H]1CN([C@@H](C)CO)C(=O)Cc2cc(NC(=O)C3CC3)ccc2O[C@@H]1CN(C)S(=O)(=O)c1cn(C)cn1 | -7
Cn1c(=O)c(C(=O)NCc2ccccc2Cl)cc2cccnc21 | 170
CCC(=O)Nc1ccc(S(=O)(=O)N2CCc3nc(-c4ccccc4)sc3C2)cc1 | -13
CCOCC(=O)N1CCO[C@H]2[C@H]1CC[C@H]2OCc1csc(C)n1 | 4
COC(=O)c1sc2ccccc2c1OC(=O)c1cccnc1Oc1ccccc1 | 82
O=C(CN1C(=O)C2CCc3[nH]c4ccccc4c3C2C1=O)N1CCCC1 (stereo not drawn) | 12
CCCCC(Nc1nc(C)nc2c1cnn2C)c1cccnc1 (stereo not drawn) | -5
COc1ccc(S(=O)(=O)NC(C)c2nc(-c3ccncc3)n[nH]2)cc1 (stereo not drawn) | 63
N#CCN1Cc2ccccc2C2(CCN(C(=O)c3ccnnc3)CC2)C1 | -6
CN(C)CCC1CCCCN1Cc1ccc(F)c(C(F)(F)F)c1 (stereo not drawn) | 5
COc1ccc(S(=O)(=O)Nc2cncc(C(=O)Nc3ccc(F)cc3)c2)cc1OC | 20
Cc1cccc(-c2nc(C)c(CCNC(=O)C(=O)Nc3cccc(C)c3C)s2)c1 | 38
O=C1CC(c2cccc3[nH]ccc23)c2c(n[nH]c2C2CCC2)N1 (stereo not drawn) | -1
O=C1CCC2C(CCN2c2ncccn2)N1CC1CCOCC1 (stereo not drawn) | -4
CCCCC(=O)Nc1ccc(NC(=O)CC2C=CS(=O)(=O)C2)cc1 (stereo not drawn) | -5
COc1ccc2c(c1)NC1(CCN(C(=O)Nc3ccccc3Cl)CC1)c1cccn1-2 | 331
O=c1[nH]c2ccccc2c(O)c1-c1nc(-c2ccc(F)c(Cl)c2)no1 | 34

# Structures shown so far that have a Cl atom (3):
Molecule | Tg IFNy HTS
Cn1c(=O)c(C(=O)NCc2ccccc2Cl)cc2cccnc21 | 170
COc1ccc2c(c1)NC1(CCN(C(=O)Nc3ccccc3Cl)CC1)c1cccn1-2 | 331
O=c1[nH]c2ccccc2c(O)c1-c1nc(-c2ccc(F)c(Cl)c2)no1 | 34

# (listing goes on)
Molecule | Tg IFNy HTS
Cn1cc(CN2CCC(C(=O)NCCc3ccc(Cl)cc3)C2)cn1 (stereo not drawn) | 6
N#C[C@@H]1[C@H](c2ccccc2C2=CCCC2)[C@@H](CO)N1C(=O)NC1CCCCC1 | -17
Cc1ccc2[nH]cc(CCN3CC(C(=O)NC4CCCCC4)CC3=O)c2c1 (stereo not drawn) | 149
COc1ccc(NC(=O)C2C(=O)NC34CCCCC3C2c2ccccc2O4)cc1 (stereo not drawn) | 129
O=C(Cn1ncc2c(N3CCCCCC3)ncnc21)NCc1ccccn1 | 53
COCCNC(=O)C1CCCN(C2CCN(C(=O)/C=C/c3ccccc3)CC2)C1 (stereo not drawn) | -1
CCc1ncc(-c2c(-c3ccccc3)ncn2CC(=O)N2CCNCC2)cn1 | -4
COc1ccccc1-c1cc(C(=O)NCc2noc(-c3ccc(Cl)cc3)n2)[nH]n1 | -60
Cc1oc(C2CCN(S(=O)(=O)c3cccc(F)c3)CC2)nc1C(=O)N1CCCC1 | 13
CC(=O)NCc1nnn2c1CN(c1ncc(C)cn1)CCC2 | -63
Cc1oc(-c2ccc(NC(=O)c3cccs3)cc2)nc1Cn1cccn1 | -24
O=C(Nc1ccc2c(c1)OCO2)N1CCCCC1CCn1cccn1 (stereo not drawn) | 23
COc1ccc2nc(CN3CC=CC[C@@]4(C(=O)N5CCN(C)CC5)CCC[C@@H]34)ccc2c1 | 203
CC(=O)NCCc1csc(C2CCN(C(=O)NCc3ccc(F)cc3)CC2)n1 | -4
CC1CCN(c2nc(C(=O)NCC(C)c3ccccc3)nc3ccccc23)CC1 (stereo not drawn) | -64
CC(=O)N1CCCC1c1cccc(C(=O)Nc2cnccn2)n1 (stereo not drawn) | 5
CN(Cc1ccccc1)C1CCN(C(=O)c2ccncc2)C(C(=O)O)C1 (stereo not drawn) | -1
CCC/C=C/c1cc(C(=O)NC2CC2)ccn1 | 7
Cc1cc2c(cc1C(=O)N1CCC(Cc3cccc(C(N)=O)c3)C1)OCCO2 (stereo not drawn) | 3
COc1cc(-c2n[nH]c(=S)n2-c2ccccc2Cl)cc(OC)c1OC | 63

# Next part, overlapping the part above by 3 compounds.
Molecule | Tg IFNy HTS
CCC/C=C/c1cc(C(=O)NC2CC2)ccn1 | 7
Cc1cc2c(cc1C(=O)N1CCC(Cc3cccc(C(N)=O)c3)C1)OCCO2 (stereo not drawn) | 3
COc1cc(-c2n[nH]c(=S)n2-c2ccccc2Cl)cc(OC)c1OC | 63
O=C(CCN1CCCC1)NC1(C#Cc2cnc3ccccc3c2)CCCCC1 | -41
CC(=O)NC[C@H]1[C@@H](c2ccc(-c3cccnc3)cc2)[C@@H](CO)N1C(=O)CC1CC1 | 4
Cc1nnsc1CN(C)C(=O)c1cccc(-n2cccn2)c1 | 0
Cc1c(-c2cnc(NC(=O)c3ccccc3)s2)sc2ccc(Cl)cc12 | -8
C=CCn1c(=O)c(C(=O)Nc2ccccc2OCC)c(O)c2ccccc21 | 12
Cc1ccc(CC(=O)N2CCn3cc(Cn4cncn4)nc3C2)cc1 | -74*
Cc1ccc(OCC(O)CN2CCC(C)CC2)c(C)c1 (stereo not drawn) | -7
C=CCO[C@H]1CN(C(=O)c2cccc(C#N)c2)[C@H]2COC[C@@H]12 | 24
COCC(=O)Nc1ccc(-c2nc(Cn3nc(C)c(C)c3C)c(C)o2)cc1 | 60
c1ccc2c(Cn3nnc4ccccc43)cccc2c1 | 10
O=C1CSCC(=O)N1c1cccc2ccccc12 | 1
O=C(CCc1ccccc1)N1CCC2(CC1)Nc1ccccc1-n1cccc12 | 42
O=S(=O)(c1ccc(F)cc1)N1CCC2(CC1)Nc1cc(F)ccc1-n1cccc12 | 14
CCOC(=O)[C@H](CCc1ccccc1)N[C@@H](C)C(=O)N1[C@H](C(=O)O)C[C@H]2CCCC[C@@H]21 | 10
N#Cc1c(-c2ccco2)nc(SCC(=O)Nc2ccc(S(N)(=O)=O)cc2)[nH]c1=O | 46
CCn1cc2c(n1)C(COC)CN(Cc1nccs1)C2 (stereo not drawn) | 3
CS(=O)(=O)N1C[C@@H]2COC[C@@]2(CN2CCOCC2)C1 | 7
Cc1cc(=O)oc2cc(CN3CCCN(C(=O)c4ccco4)CC3)ccc12 | -2
COc1cccc(Cc2nnc(-c3ccc4nsnc4c3)o2)c1 | 29
CN(C)c1ccc2c3c(cccc13)C(=O)N(c1nc3ccccc3n1C)C2=O | 51

# Additional results
Molecule | Tg IFNy HTS
O=C(Nc1cccc(F)c1)N1C[C@@H]2[C@H](c3ccccc31)[C@H](CO)N2C(=O)Cc1ccccn1 | -46
CN1CCN(CC#N)C(=O)C12CCN(C1CCOC1)CC2 (stereo not drawn) | 35
O=C(Cc1cccc(F)c1)N1CC(C(=O)N2CCCC2)C2(CCOCC2)C1 (stereo not drawn) | 241
CN(C)c1cc(NCC2CCC3(COCCN(C(N)=O)C3)O2)ncn1 (stereo not drawn) | 140
COCc1cc(CN2CCC3(CC2)C(=O)NCCN3C)ccc1OC | 8
CNCc1cc(-c2ccc(F)cc2Cl)ccc1OC | -47
O=C(NCCCN1CCCC1)C1CCN(Cc2cc3ccccc3n2Cc2ccccc2)CC1 | -14
CN(C)c1ncc2c(n1)[C@H]1CN(C(=O)CC(C)(C)C)C[C@@H]1S(=O)(=O)C2 | 5
COc1ccccc1Cn1ncc2c1CCCC2NC(=O)c1cc(-c2cccs2)no1 (stereo not drawn) | -77*
COc1ccc(C2CCCN2CC(=O)Nc2ccc(-n3cnnn3)cc2)cc1OC (stereo not drawn) | 10
O=c1oc2ccc(Br)cc2cc1-c1csc(-c2ccc([N+](=O)[O-])cc2)n1 | 0
COc1cccc(CN(C(=O)c2cc(NC(C)=O)ccc2Cl)C2CC2)c1 | -5
CN1C(=O)c2cc(NS(=O)(=O)c3cccc(F)c3)ccc2OC[C@@H]2O[C@H](CC(=O)NCCN3CCCCC3)CC[C@H]21 | 23
CNc1cc(OC)c(C(=O)NC2CCN(Cc3ccccc3)C2C)cc1Cl (stereo not drawn) | -26
CCOc1ccccc1C(=O)N1CCC(C(=O)NCCc2csc(-c3ccccc3)n2)CC1 | 7
CCOc1ccc(S(=O)(=O)N2CCC[C@@H]2C(=O)NCCc2csc(C)n2)cc1 | -3
C[C@@H]1CCCCO[C@@H](CN(C)S(=O)(=O)c2cn(C)cn2)[C@@H](C)CN([C@@H](C)CO)C(=O)c2cc(NC(=O)Nc3cccc4ccccc34)ccc2O1 | i
COc1cccc(NC(=O)N2CCCCC2CCN2CCCC2=O)c1 (stereo not drawn) | 2
O=C(Nc1cc(F)cc(F)c1)N1CCCC2(C1)Nc1cccnc1NC2=NC1CCCC1 (stereo not drawn) | -86*
Cn1c(=S)n(CCC(=O)O)c2ccccc21 | -4

# Three structures from above, arranged by SMILES length, lowest first.
Molecule | Tg IFNy HTS
COc1cccc(CN(C(=O)c2cc(NC(C)=O)ccc2Cl)C2CC2)c1 | -5
O=C(Cc1cccc(F)c1)N1CC(C(=O)N2CCCC2)C2(CCOCC2)C1 (stereo not drawn) | 241
O=C(NCCCN1CCCC1)C1CCN(Cc2cc3ccccc3n2Cc2ccccc2)CC1 | -14

# (listing goes on)
Molecule | Tg IFNy HTS
COCCNC(=O)C[C@H]1CC[C@@H]2[C@H](COc3ccc(NC(=O)Nc4cccc(F)c4)cc3C(=O)N2C)O1 | -18
O=C(O)CCc1ccc(NCc2cccc(Oc3ccccc3)c2)cc1 | 14&1
O=C(NC1CCCC1)N1CCC2(CC1)Nc1ccccc1-n1cccc12 | 123
Cc1nn(C)cc1-c1ccnc(NC[C@@H]2CCCO2)n1 | 2
CC(C)Oc1ccc(C(=O)NCCc2csc(-c3ccc(Cl)cc3)n2)cc1 | 7
COc1cnc(C2(O)CCN(C(=O)Cc3ccc(S(C)(=O)=O)cc3)CC2)c(OC)n1 | -5
COc1cc(C(F)(F)F)nc2ccc(C#CCOC(=O)Nc3cccc(Cl)c3)cc12 | -109*
O=C(Cc1ccccc1)N1CCC2(CC1)Nc1cc(F)ccc1-n1cccc12 | 71
O=C(C[C@H]1C=C[C@H](NC(=O)Nc2ccccc2F)[C@@H](CO)O1)NCc1ccc(-c2ccccc2)cc1 | -46
C[C@@H]1CN([C@H](C)CO)C(=O)CCCn2nncc2CO[C@@H]1CN(C)Cc1ccccc1C(=O)O | 22
CCC(=O)Nc1ccc2c(c1)C(=O)N(C)C[C@@H](OC)[C@@H](C)CN(C(=O)Cc1cccnc1)[C@@H](C)CO2 | 24
CN(C)CC(=O)N1Cc2nnn(C)c2C(COCc2ccccc2)C1 (stereo not drawn) | 3
CCOC1C2CCC1N(S(=O)(=O)c1ccc(OC)cc1)C2 (stereo not drawn) | 41
COCC1(C(=O)N2CCOC(c3ccc(F)cc3)C2)CCC1 (stereo not drawn) | 7
Cc1cccn2cc(C(=O)NC3C=CS(=O)(=O)C3)nc12 (stereo not drawn) | -36
COc1ccc2c(c1)NC1(CCN(C(=O)Nc3cccc(C)c3C)CC1)c1cccn1-2 | 337
O=C(O)c1cc(-c2ccc(/C=C/c3cc(C(F)(F)F)[nH]c(=O)n3)o2)ccc1Cl | -1
CCO[C@H]1CC[C@@H]2[C@H]1OCCN2C(=O)c1cc2cccc(OC)c2o1 | -1
CC(C)c1cc(C2CCN(C(=O)c3ccc(-c4ncn[nH]4)cc3)CC2)[nH]n1 | -6
O=C(NCCc1csc(-c2ccccc2)n1)[C@H]1CCCN1C(=O)c1ccc(F)c(F)c1 | 3

# (next part)
Molecule | Tg IFNy HTS
COc1ccc(S(=O)(=O)Nc2ccc(-c3nc(-c4ccc(C)c(C)c4)co3)cc2)cc1 | 26
Nc1ncnc2c1ncn2CCOCP(=O)(O)O | 8
CC(C)n1cnc2c(N3CCOCC3)nc(C3CCN(C(=O)c4cccnc4)CC3)cc21 | 0
N#C[C@@H]1[C@H](c2ccccc2C2=CCCCC2)[C@@H](CO)N1C(=O)CN1CCOCC1 | 1
C[C@H]1CN([C@@H](C)CO)C(=O)c2cc(NS(=O)(=O)c3cn(C)cn3)ccc2O[C@@H]1CN(C)S(=O)(=O)c1ccc(F)cc1 | 22
C[C@@H]1CN([C@H](C)CO)C(=O)c2ccccc2-c2ccccc2CO[C@H]1CN(C)C(=O)Nc1cccc(C(F)(F)F)c1 | -37
Nc1nc(/C(=C/CC(=O)O)C(=O)N[C@@H]2C(=O)N3C(C(=O)O)=CCS[C@H]23)cs1 | 29
COc1cccc(NC(=O)N2C[C@@H](O)COC[C@@H]3O[C@@H](CC(=O)N(C)C)CC[C@H]32)c1 | 11
CCc1nc(-c2ccccc2)n2ccn(CC#N)c(=O)c12 | -44
Cc1ccc(C)c(C(NC(=O)c2nnc(C)o2)c2cccnc2)c1 (stereo not drawn) | 1
CCCc1nc(C)cc(N2CCN(C(=O)c3ncn[nH]3)CC2)n1 | 5
O=C(CN1CCC(c2ccncc2)CC1)N1CCOCC1 | 21
CC(C)c1ccc(NC(=O)CN2C(=O)CCc3cc(S(=O)(=O)N4CCCC4)ccc32)cc1 | u
CCc1nc(Cn2ccnc2-c2ccnn2-c2ccccc2)no1 | -51
Cc1cc(C)c2c(c1)sc1c(C)c(C)ccc12 | 60

# Reprinted from above (two entries):
Molecule | Tg IFNy HTS
C[C@@H]1CN([C@H](C)CO)C(=O)c2ccccc2-c2ccccc2CO[C@H]1CN(C)C(=O)Nc1cccc(C(F)(F)F)c1 | -37
Nc1nc(/C(=C/CC(=O)O)C(=O)N[C@@H]2C(=O)N3C(C(=O)O)=CCS[C@H]23)cs1 | 29
